# Source: PubChem BioAssay
# D2 potentiator: positive allosteric modulators of human D2 dopamine receptor; P14416; DiscoveRx D2 beta-arrestin cells, luminescence, 90 min; 100% = 57 uM dopamine signal; potentiation, % (no concentration beside the values); 360,000 tested, 0.23% active; active = potentiation of 50% or more; inconclusive = 30% to 50%; inactive = 30% or less;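 note: compound concentration not given in the record; tested on top of an EC20 dose of dopamine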
# Target sequence (P14416 whole entry, looked up): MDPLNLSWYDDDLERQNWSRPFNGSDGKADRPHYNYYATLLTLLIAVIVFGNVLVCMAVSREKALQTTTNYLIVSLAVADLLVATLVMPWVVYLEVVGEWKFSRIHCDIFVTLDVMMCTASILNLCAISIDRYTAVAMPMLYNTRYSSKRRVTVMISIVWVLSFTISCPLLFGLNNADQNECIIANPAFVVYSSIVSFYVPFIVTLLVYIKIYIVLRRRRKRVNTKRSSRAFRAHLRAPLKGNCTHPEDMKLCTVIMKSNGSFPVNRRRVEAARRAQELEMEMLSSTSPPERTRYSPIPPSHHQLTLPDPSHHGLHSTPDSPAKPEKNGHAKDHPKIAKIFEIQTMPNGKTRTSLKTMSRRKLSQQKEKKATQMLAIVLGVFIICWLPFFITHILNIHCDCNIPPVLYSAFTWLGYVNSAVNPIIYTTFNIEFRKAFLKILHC
#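 PathHunter beta-arrestin assay in DiscoveRx D2 cells. Compounds were added with an EC20 of dopamine (50 nM final) for 90 min at 37 deg C. Luminescence was read 1 h after detection reagent, with 57 uM dopamine as the EC100 control.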
# CtBP-E1A blk: inhibitors of CtBP/E1A interaction; activity change, % (test concentration not listed); 340,000 tested, 0.49% active; AlphaScreen GST-E1A/His-CtBP binding, 1536-well; hits give low values; control for the full effect not named in the record; in the data active means activity change below about -65%; inconclusive means about -30% to -65%; inactive means above about -30%; note: % is set by controls: 0 for no effect and ±100 for the full control effect; compound concentration not given in the record
#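 Homogeneous bead-based format: GST-tagged E1A captured on glutathione donor beads, His-tagged CtBP on nickel acceptor beads; compounds precede bead addition by 2 h at 37 °C.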
# Six1-Eya2 blk: inhibitors of human Six1/Eya2 interaction. AlphaScreen GST-Six1/His-Eya2 binding, biochemical; hits give low values; control for the full effect not named in the record. Q15475+O00167. activity change, % (concentration not given with the values). 360,000 tested, 0.56% active; in the data active = activity change below about -65%; inconclusive = about -30% to -65%; inactive = above about -30%; note: % is set by controls: 0 for no effect and ±100 for the full control effect
#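 AlphaScreen with GST-Six1 and His-Eya2 (5X mix: 250 nM and 500 nM), glutathione donor and nickel acceptor beads; buffer 50 mM Tris pH 8.0, 300 mM NaCl, 1 mM TCEP; 1 h at 37 C in the dark.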
# gsp antagonist: antagonists of gsp mutant (McCune-Albright syndrome); gsp-mutant cells, cAMP HTRF, 30 min; control for the full effect not named in the record; Potency, µM (highest dose often 76.9 µM), for inactives: at the highest dose activity change, negative = inhibition, most hits filed as inhibitors; 340,000 tested, 0.4% active; active = falling curve of any shape with a large fitted effect; inconclusive = falling curve, mostly with a smaller effect; inactive = flat or rising curve; cell line not stated here;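 note: intracellular cAMP measured with PDE inhibitor Ro 20-1724 present during compound exposure; potency is the fitted concentration of half-maximal effect; % is set by controls: 0 for no effect and ±100 for the full control effect; nearly all actives have a fitted effect of over 65% in size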
#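 HTRF cAMP measurement after 30 min RT detection following 30 min, 37C compound treatment alongside […] (added as 300 uM solution) in G418-selected cells seeded at 2000/well and grown 16–24 h.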
# D2 ag: agonists of human D2 dopamine receptor (beta-arrestin) | P14416 | DiscoveRx PathHunter D2 beta-arrestin, luminescence, 90 min; 100% = 57 uM dopamine signal | activation, % (concentration not given with the values) | 360,000 tested, 0.084% active | AID 624465; in the data active = activation above about 40%; inconclusive = about 15% to 40%; inactive = below about 15%; note: compound concentration not given in the record; the text of the record calls up to 30% inactive
#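 DiscoveRx PathHunter D2 beta-arrestin cells (2,100/well) attached overnight, then compound-stimulated 90 min at 37 C in HBSS/10 mM HEPES/0.1% Tween-20 buffer; beta-galactosidase complementation read by luminescence after 1 h at ambient temperature. Dopamine 57 uM final (EC100) as control.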
# gsp agonist: agonists of gsp mutant (McCune-Albright syndrome). Potency, µM (highest dose often 76.9 µM), for the others: at the top dose activation (cAMP increase), usual class: activators. 340,000 tested, 0.13% active. gsp mutant cells, cAMP HTRF, 30 min; control for the full effect not named in the record; active = well fitted activation curve with a large enough effect; inconclusive = small, poorly fitted or top-dose-only effect, or another doubt; inactive = no such curve, though single readings can be large or run the other way; cell line not stated here;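 note: phosphodiesterase inhibitor Ro 20-1724 added with compounds to block cAMP breakdown; potency is the fitted concentration of half-maximal effect; nearly all actives have a fitted effect of over 60% in size; about a fifth of the inactives were tested at one dose only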
#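 Cells stably selected in G418 were plated at 2000/well, grown 16-24 hr, then given compounds in DMSO with the PDE inhibitor […] (300 uM solution added) for 30 min at 37C; cAMP was read by HTRF.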
# * hit, by the source's call; ? = inconclusive; nt = no result given; [ ] = dose if it differs, or a comment. Outcome played no part in choosing rows; any-hit rate near 1.4%.
SMILES,D2 potentiator,CtBP-E1A blk,Six1-Eya2 blk,gsp antagonist,D2 ag,gsp agonist
COc1ccccc1OCC(=O)Nc1nc(-c2ccc(S(=O)(=O)N3CCOCC3)cc2)cs1,-7,-6,-8,?,-2.1,?
CC(NC(=O)Cc1ccc(NC2=NC3CS(=O)(=O)CC3S2)cc1)c1ccccc1 (stereo not drawn),-5,4,2,5%,-4.9,-47%[inhibitor]
Cc1cn([C@H]2C[C@H](O)[C@@H](/C=C/C(=O)NCCc3ccc(S(N)(=O)=O)cc3)O2)c(=O)[nH]c1=O,-4,-16,10,nt,-5.5,nt
CC1CCN(c2ncnc3nc[nH]c23)CC1,-8,4,-4,-12%,-4.3,14%
COCCNC(=O)[C@@]1(C)C=C[C@@H](Cc2ccccc2)N1C(=O)c1ccccc1,-12,3,3,3%,-3.2,-17%
O=C(Nc1cccnc1)Nc1ccc(Cl)cc1Cl,-8,nt,-7,-25%,2.4,8%
CC(C)C(NS(=O)(=O)c1cc(C(=O)O)ccc1Cl)C(=O)O (stereo not drawn),0,6,5,5%,-1.8,3%
Cn1c(N)nc2nc(CCc3ccccc3)c(=O)[nH]c2c1=O,0,-5,-3,2%,0.9,-4%
CCOc1ccc(S(=O)(=O)N(C)c2ccc(OCC(=O)NC3=NCCS3)cc2)cc1,2,-15,2,-2%,2.7,-10%
CC(=O)Nc1ccc(Oc2nc(C)cc(C)n2)cc1,-36,-5,0,8%,0.3,-1%
COc1cc(/C=C/C(=O)OCC(=O)NC(=O)NC(C)(C)C)ccc1OCC#N,-4,-20,2,3%,-3.9,-9%[15.4 µM]
COc1cc(N=CC2=C(O)c3ccccc3C2=O)cc(OC)c1,5,0,3,7%,1.9,6%
CCCc1nc2ccc(C)cn2c1Cc1ccccc1,-6,23,10,nt,1.4,nt
CN(CC(=O)N1CCc2ccccc21)S(=O)(=O)c1cccc2cccnc12,-8,0,7,-9%,1.9,-3%
CC(=O)Oc1ccc(C(=O)OCC(=O)c2c(N)n(C)c(=O)n(C)c2=O)cc1OC(C)=O,11,-18,-83*,-7%,2.1,8%[15.4 µM]
Cc1ccc(C)c(NC(=O)COC(=O)CCC(=O)c2cccs2)c1,-3,2,-4,13%,-3.8,15%
COc1ccc2[nH]c3c(=O)n(Cc4ccc(C(=O)NCC5CCCO5)cc4)c(=S)[nH]c3c2c1 (stereo not drawn),-8,nt,-10,-6%,-6.2,2%
CC(=O)Nc1ccc(NS(=O)(=O)c2ccc3ccccc3c2)cc1,-2,-8,-2,-26%,-0.6,-15%
O=C(O)c1cc([N+](=O)[O-])ccc1Nc1ccccc1,2,-2,-3,-30%,-4.7,-19%
O=C(NCc1ccco1)c1ccc(Cn2c(=O)c3sccc3n(Cc3cccc(F)c3)c2=O)cc1,-5,-7,-3,-15%,-2.9,6%
Cc1ccc(C)c(CSc2nnc(C)c(=O)n2N)c1,11,0,21,16%,-4.2,-7%[15.4 µM]
COc1ccc(S(=O)(=O)NCC(c2cccnc2)N2CCN(c3ccccc3)CC2)cc1C (stereo not drawn),11,-3,-6,6%,8.0,3%
O=C(Oc1ccc(-c2csnn2)cc1)C1CC1,-1,2,-8,12%,-0.2,0%[15.4 µM]
CC(=O)c1ccc(Oc2cc(C)nc(N3CCOCC3)n2)cc1,-11,16,5,9%,1.1,-10%
COc1ccc(N(C(=O)c2ccncc2)S(=O)(=O)c2cccs2)cc1,3,-7,1,-6%,-1.4,15%[15.4 µM]
Cc1ccc(S(=O)(=O)N(C)C)cc1NC(=O)Nc1c(-c2ccccc2)noc1C,-12,nt,2,7%,1.3,13%
CCOC(=O)c1c(N)c(C#N)c2n1CCCC2,-3,0,-2,10%,-4.6,-21%
COc1cc(/C=N/NC(=O)C(=O)NCC2CCCO2)cc(Cl)c1O (stereo not drawn),-4,0,-2,?,-8.1,?
CC1=CC(=O)O[C@@H]1[C@@]1(C)C[C@H]2OC(=O)C[C@H]3[C@@H](C)C(=O)C(O)=C1[C@@]23CO,-29,5,3,5%,-4.4,nt
Cc1[nH]n(C(N)=S)c(=O)c1N=Nc1cc(-c2ccc(Br)cc2)[nH]n1,-6,-7,-17,-11%,-6.4,-1%[15.4 µM]
COc1ccc(N2C(=O)CCC(C(=O)NCc3ccccn3)C2c2ccc(OC)c(OC)c2)cc1 (stereo not drawn),9,-1,3,6%,0.0,-6%
CC1=C(C(=O)N2CCOCC2)C(c2c(F)cccc2F)NC(=O)N1 (stereo not drawn),-2,-10,8,0%,3.8,27%
CCNc1nnc(-c2ccncc2)s1,-11,1,-1,5%,-3.0,-1%
CC(=O)c1cccc(NC(=O)COc2ccccc2C(=O)c2cc(C#N)c(=O)n(C3CCCCC3)c2)c1,-4,-2,2,-17%,3.3,11%
Cc1ccc(CN(C(=O)Cn2nnc3ccccc32)C(C(=O)NCc2ccco2)c2cccs2)cc1 (stereo not drawn),-39,-17,-17,?,-2.6,-14%
COC(=O)c1sccc1NC(=O)CSc1ccccc1NS(=O)(=O)c1ccc(Br)cc1,9,-9,-4,?,1.1,-1%
CCOC(=O)c1cnn(-c2ccc(C)cc2)c1N,4,3,3,-5%,-1.4,-56%[inhibitor]
COc1ccc(F)cc1S(=O)(=O)NC(Cc1ccccc1)C(N)=O (stereo not drawn),-12,8,6,18%,-0.4,-36%[inhibitor]
C=CCOc1ccc(-c2nc3c(c(=O)[nH]c(=O)n3Cc3ccccc3)n2CCCOC)cc1,-7,-3,-9,-4%,-4.3,-6%[15.4 µM]
Nc1cc(N)c(OCC(F)(F)F)cc1OCC(F)(F)F,24,-26,-16,3%,12,9%
CCOn1c(SC(C)C)nc2ccccc2c1=O,-8,7,12,4%,-2.4,0%
CCc1nonc1NC(=O)c1oc2cc(C)c(C)cc2c1C,-9,nt,9,1%,-0.1,-3%
COC(=O)c1ccc(S(=O)(=O)N2CCCCC2)o1,-7,0,5,8%,-1.4,-1%
COc1ccc(CCNC(=O)C2CCCN(S(=O)(=O)c3ccc(F)cc3)C2)cc1 (stereo not drawn),-14,0,0,4%,-0.8,-2%[15.4 µM]
CCOC(=O)c1[nH]cnc1C(=O)NC1CCCCC1,-13,5,-2,2%,-1.8,-4%
COc1ccc(C(=O)O/N=C(\N)c2ccncc2)cc1OC,85*,2,-1,4%,?,11%
COc1ccc([C@H]2CC(=O)C=C(c3cccc(C(F)(F)F)c3)C2)cc1,-8,1,10,-6%,-6.2,-7%
CCN(C(=O)COC(=O)c1cc(S(=O)(=O)N2CCOCC2)c(Cl)cc1Cl)C1CCS(=O)(=O)C1 (stereo not drawn),6,0,6,-1%,3.7,24%
COc1ccc(CNC(=O)C2(C)Cc3ccccc3C(=O)O2)cc1 (stereo not drawn),-8,nt,1,-5%,-1.1,5%
CCOC(=O)c1c(NS(=O)(=O)Cc2ccccc2)sc2c1CCCC2,-17,8,-1,?,-1.3,13%
# The results go on:
SMILES,D2 potentiator,CtBP-E1A blk,Six1-Eya2 blk,gsp antagonist,D2 ag,gsp agonist
CCN1C(=O)/C(=C\c2cccc(OC(=O)c3ccco3)c2)SC1=S,-4,1,5,8%,-4.0,3%
O=C(c1ccc(C23CC4CC(CC(C4)C2)C3)o1)N1CCOCC1,-8,-4,0,?,-0.9,19%
CCc1nc(NC(C)(C)C)c2cnn(-c3ccccc3)c2n1,-2,6,1,?,-3.4,?
O=S(=O)(NCC1CCCO1)c1ccc(Br)cc1 (stereo not drawn),-6,7,-2,5%,-5.1,-16%
COc1ccc(OCCC(=O)N2CCCCC2)cc1,1,2,7,3%,-4.6,1%[15.4 µM]
OC(c1cccc(Cl)c1)c1nc(-c2ccc(Cl)cc2)cs1 (stereo not drawn),-7,0,2,nt,-2.2,nt
CCOc1nc(Nc2ccc(Cl)cc2)nc(OCC)n1,-27,-6,-22,-4%,1.1,1%[15.4 µM]
COc1ccc(Cl)cc1NC(=S)NC(=O)c1ccc2c(c1)OCO2,-11,3,29,-14%,-0.5,-71%[inhibitor]
O=C(CCCN1C(=O)c2ccccc2C1=O)Nc1ccccn1,8,1,10,8%,1.1,0%
Cc1cc(C)c(C)c(S(=O)(=O)NCC(=O)O)c1C,1,3,2,4%,-2.4,-20%

# Random excerpt: 5 entries already listed
SMILES,D2 potentiator,CtBP-E1A blk,Six1-Eya2 blk,gsp antagonist,D2 ag,gsp agonist
COc1cc(N=CC2=C(O)c3ccccc3C2=O)cc(OC)c1,5,0,3,7%,1.9,6%
Cn1c(N)nc2nc(CCc3ccccc3)c(=O)[nH]c2c1=O,0,-5,-3,2%,0.9,-4%
CCNc1nnc(-c2ccncc2)s1,-11,1,-1,5%,-3.0,-1%
COc1ccc([C@H]2CC(=O)C=C(c3cccc(C(F)(F)F)c3)C2)cc1,-8,1,10,-6%,-6.2,-7%
CCCc1nc2ccc(C)cn2c1Cc1ccccc1,-6,23,10,nt,1.4,nt

# New compounds follow:
SMILES,D2 potentiator,CtBP-E1A blk,Six1-Eya2 blk,gsp antagonist,D2 ag,gsp agonist
COc1cc2c(cc1OC)C(C)N(C(=O)c1cc3c(s1)-c1c(C)cccc1OC3)CC2 (stereo not drawn),-1,-1,-4,35µM*,-2.0,-70%[inhibitor]
O=C1CCC(CCC(=O)N2CCCC(C(=O)c3cccc(C(F)(F)F)c3)C2)=NN1 (stereo not drawn),6,10,1,2%,4.5,18%
O=C(Cn1cc(C(=S)N2CCOCC2)c2ccccc21)N1CCOCC1,-18,-4,8,4%,-2.0,-75%[inhibitor]
CCc1noc(C)c1C(=O)N1CCN(c2cccc(C)c2C)CC1,-6,6,-6,-9%,-0.7,10%[15.4 µM]
Cc1cccc(Nc2ncnc3ccc(Br)cc23)c1,-2,0,-3,-1%,3.4,7%
O=C1CC(C(=O)N2CCC(N3CCC(C(=O)NC4CC4)CC3)CC2)c2ccccc21 (stereo not drawn),-4,nt,-2,2%,-3.6,24%
O=C(Nc1cccc(Cl)c1)Nc1nnc(-c2ccccc2)o1,1,5,4,4%,0.7,25%
CC(C)(C)c1ccc(NC(=O)Nc2ccc(OCC(=O)N3CCOCC3)cc2)cc1,5,4,-4,-2%,-0.3,29%[15.4 µM]
COc1ccccc1CNC(=O)c1cccc(S(=O)(=O)N2CCN(C)CC2)c1,-3,nt,4,2%,5.9,-2%[15.4 µM]
O=C(NCCc1ccc(Cl)cc1)C1CCN(S(=O)(=O)N2CCC3(CC2)OCCO3)CC1,5,3,-1,-1%,-0.7,-19%
Cc1ccc(Cn2cc(-c3ccccc3)nn2)cc1,1,9,9,15%,0.4,nt
CCc1ccc(NC(=O)CCn2cccc2)cc1,-14,-13,-3,-4%,0.4,-5%
O=C(Nc1ccc2c(c1)C(=O)OC2)c1ccc(Cl)cc1Cl,-3,6,1,?,8.4,-4%
OCC[C@H]1C[C@@H](O)[C@H](O)[C@@]2(CCCCO2)O1,-5,5,6,6%,-3.4,nt
CC(=O)Oc1ccc(-c2nc3ccccc3c(=O)o2)cc1,6,-5,-3,-9%,-0.8,3%
CC1(C)Cc2ccccc2-c2nnc(-c3ccccc3)n21,-8,-2,6,2%,3.1,0%
